Screening data deposited in PubChem by Broad Institute.
Tg IFNy HTS: inhibitors of Toxoplasma gondii growth with IFN-gamma. 69,000 tested, 3.8% active. activity change, negative = inhibition, %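 (about 20 µM by stock and volumes)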. Toxoplasma gondii growth in IFN-gamma-treated host cells; hits give low values; reference of the scale not given here. AID 1259416;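 active means below -70%; inconclusive means fit judged invalid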;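 further: host cells are HeLa cells infected with Toxoplasma gondii; parasite growth read as luciferase light; one replicate is shown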
Active calls of the source: *; ? = inconclusive; & = joins results of further samples. An excerpt, so the mix of outcomes need not match the whole.

SMILES | Tg IFNy HTS
CCc1nccn1CCCn1cc(C2CC=CCC2)nn1 (stereo not drawn) | -44
CC(=O)N1CCC(C(=O)NCc2ccccc2)(N(C(=O)c2ccc(C)cc2)c2cc(F)ccc2F)CC1 | -26
CN1C(=O)c2cc(NC(=O)Cc3cccs3)ccc2OC[C@H]2O[C@H](CC(=O)N[C@@H]3CCN(Cc4ccccc4)C3)CC[C@@H]21 | -21
COC[C@@H](c1ccc(C(F)(F)F)cc1)N1CCN(C2(C)CCN(C(=O)c3c(C)ncnc3C)CC2)C[C@@H]1C | 20
COc1ccccc1CN1CCc2nc(SCc3nc(-c4ccc(C)cc4)oc3C)[nH]c(=O)c2C1 | -13
COc1ccc(CNC(=O)c2nc3c(s2)CCN(C(C)=O)CC3)cc1 | -11
O=C(NC(Cc1cc(=O)[nH]c2ccccc12)C(=O)O)c1ccc(Cl)cc1 (stereo not drawn) | 7&17
O=S(=O)(Cc1ccco1)Cc1nc(-c2ccc3c(c2)OCCO3)cs1 | 386
O=C(COc1ccc(Cl)cc1)ON=C1C2CC3CC(C2)CC1C3 | -19
Cc1ccc(S(=O)(=O)NCCc2nc3ccccc3n2C)s1 | 50
CCCc1nnc(C(=O)N2[C@@H]3CC[C@H]2CN(C)CC3)o1 | 10
O=C(COCC1COc2ccccc2O1)N1CCCN(c2ccccn2)CC1 (stereo not drawn) | 1
CN(Cc1ccc2nonc2c1)C(=O)CN1CCOc2ccccc2C1 | 1
CCn1c(C2CCN(C(=O)c3cc4c(nc3OC)CCC4)CC2)nn(C)c1=O | 18
COc1ccc(C(=O)NCCc2sc(-c3cccc(F)c3)nc2C)cc1OC | 48
CCN1c2cc(C)ccc2-n2cccc2C12CCN(S(=O)(=O)c1ccc(Cl)s1)CC2 | -61
CO[C@H]1CC[C@H]2CCN(C)C(=O)CCCN(C)C(=O)c3cc(C#N)ccc3OC[C@H]1O2 | -55
COCC1c2c(cnn2CC2CC2)CCN1C(=O)Cc1cccc(F)c1 (stereo not drawn) | -11
COC(=O)[C@@H]1C[C@H](NC(=O)c2cccc3c2OCCO3)CN1C | 8
Cc1ccc2c(c1)CN(Cc1coc3ccc(C)cc3c1=O)CC(C)O2 (stereo not drawn) | 10
CC(C)Oc1ccc2cc(C(=O)N3[C@@H]4CC[C@H]3CNC(=O)C4)c(=O)oc2c1 | 2
CCc1ccccc1NC(=O)N1CCc2nc(-c3ccc(OC)c(OC)c3)sc2C1 | 46
CCN(CCCNC(=O)C1=C(C)C(=O)OC12CCN(S(=O)(=O)CC)CC2)Cc1ccccc1 | 27
OC[C@@H]1[C@H]2c3ccccc3NC[C@H]2N1Cc1ccccc1Cl | -28
CC(C)Oc1ccc(C(=O)Nc2ccc(S(=O)(=O)Nc3ncccn3)cc2)cc1 | -29

Ordered by molecular weight (low to high): some entries from above
SMILES | Tg IFNy HTS
CC(C)Oc1ccc2cc(C(=O)N3[C@@H]4CC[C@H]3CNC(=O)C4)c(=O)oc2c1 | 2
CO[C@H]1CC[C@H]2CCN(C)C(=O)CCCN(C)C(=O)c3cc(C#N)ccc3OC[C@H]1O2 | -55
COC[C@@H](c1ccc(C(F)(F)F)cc1)N1CCN(C2(C)CCN(C(=O)c3c(C)ncnc3C)CC2)C[C@@H]1C | 20

(continued)
SMILES | Tg IFNy HTS
CN(C)C(=O)c1cc2cc(NS(=O)(=O)NCc3ccccc3)ccc2s1 | 4
COc1ccc(-c2nc(Cn3nnc(C(=O)Nc4ccc(Cl)c(Cl)c4)c3C)c(C)o2)c(OC)c1 | 45
Cc1oc(-c2ccc(C(=O)NC3CCCC3)cc2)nc1CN1CCc2ccccc21 | -12
COc1cccc(-c2ccc(NC(=O)Cn3c(C)cc(O)cc3=O)cc2)c1 | 24
Cc1ccc(NC(=O)CC(=O)NC(C(=O)N(C)C)c2ccccc2)cc1 (stereo not drawn) | 4
Cc1ccc(OCCN(C)C(=O)c2cccc(C#CC(C)(C)O)c2)c(C)c1 | -16
COc1ccc(NC(=O)N(C)C[C@@H]2Oc3ccc(NC(=O)Nc4cccc5ccccc45)cc3CC(=O)N([C@@H](C)CO)C[C@@H]2C)cc1 | -37
CN(Cc1ccccc1)c1ncccc1CNC(=O)CC1CNCCO1 (stereo not drawn) | 18
COc1ccc(NC(=O)C(=O)NCCc2sc(-c3ccc(F)cc3)nc2C)cc1OC | -4
O=C(Cn1ncc2c(N3CCCCC3)ncnc21)N1CCN(c2ccccc2)CC1 | 102
COc1ccc2c(c1)OCC(c1cncn1Cc1ccccc1CN(C)C)=C2 | -4
O=C(CC(=O)c1ccccn1)c1ccccn1 | 89
CCCCC1C=CCN1C(=O)CCc1ccc(O)cc1 (stereo not drawn) | 2
Cc1cnccc1CN(C)Cc1nc2ccccc2n1C(C)C | -39
Cn1cc(C[C@H]2[C@@H](OCC3CC3)CCN2Cc2ccoc2)cn1 | -3
CC(c1ccco1)N(C)Cc1cccn1-c1ccncc1 (stereo not drawn) | 10
COCCNC(=O)C1=C(C)C(=O)OC12CCN(S(=O)(=O)c1cccs1)CC2 | 35
O=C1CCc2cc(S(=O)(=O)N3CCN(S(=O)(=O)c4ccc(F)cc4)CC3)cc3c2N1CC3 | -5
CS(=O)(=O)N[C@@H]1CCN(CC2CCOC2)[C@H]1Cc1ccccc1 (stereo partly drawn) | -3
COC(=O)[C@@H]1C[C@H](NC(=O)CCN2CCCCO2)CN1C | 2
Cc1nc2c(c(=O)[nH]1)CCN(C(=O)c1ccc(Cn3cc(Cl)cn3)o1)C2 | -2
O=C(Oc1cccc(C(F)(F)F)c1)c1cncc(C#Cc2ccccc2)c1 | 39
CCOC(=O)c1noc2nc(C)n(Cc3nc(-c4ccccc4)oc3C)c(=O)c12 | 69
CCS(=O)(=O)N1CCC2(CC1)OC(=O)C(C)=C2C(=O)NCc1cccc(Cl)c1 | 4
CCNC(=O)NC(CC(C)C)c1nnc2n1CCNCC2 (stereo not drawn) | 2
SMILES | Tg IFNy HTS
CCn1cc2c(n1)C(COC)CN(Cc1ccccn1)C2 (stereo not drawn) | -4
COc1cc2cc(CN3CCCC3c3ccco3)c(=O)[nH]c2cc1OC (stereo not drawn) | 3
COCCN(Cc1ccc(C)c(Br)c1)S(=O)(=O)c1ccc2[nH]c(=O)ccc2c1 | 115
O=C(NCC[C@@H]1CC[C@@H](NC(=O)c2ccncc2)[C@@H](CO)O1)Nc1ccc(Cl)cc1 | -46
O=C1N(Cc2ccc(F)c(F)c2)CCCC1(O)CNCCc1ccccn1 (stereo not drawn) | -1
Cc1ccccc1-c1ccc(C2[C@@H]3CN(S(=O)(=O)Cc4ccccc4)C[C@H]2N3)cc1 (stereo partly drawn) | -77*
CN1C2CCN(Cc3ccoc3)CC2C[C@H]1CN1CCCC1 (stereo partly drawn) | 1
Cc1noc(CN(C)C(=O)c2ccc(Cn3ccc4ccccc43)o2)n1 | 2
CCCNC(=O)N1[C@H](CNC(=O)c2cccc(F)c2)[C@H](c2ccccc2)[C@@H]1CO | 12
Cc1nc(C)n(C(=O)N2CCOCC2)n1 | -8
Cc1ocnc1C(=O)N1CCC(c2nn(C)c(=O)n2Cc2ccccc2)CC1 | 1
CC(CN(C)Cc1ccc2[nH]ccc2c1)N1CCOCC1 (stereo not drawn) | -47
CC1CNC(=O)CCN1C(=O)Cc1ccc(O)c(Cl)c1 (stereo not drawn) | -4
FC(F)(F)CCc1nc(C2CC2)n[nH]1 | 4
CC(C)Oc1ccc(-c2noc(-c3c(O)c4ccc(F)cc4[nH]c3=O)n2)cc1 | -33
Cc1[nH]cnc1CN(C)Cc1nc2ccccc2n1C | 5
CO[C@@H]1CN(C)C(=O)c2cc(NC(C)=O)ccc2OC[C@H](C)N(Cc2ccncc2)C[C@H]1C | -66
CN(C)Cc1cnc2n1CCN(C(=O)Cc1ccsc1)CC2 | -3
CCn1c(SCC(=O)Nc2ccc(N(C)C)cc2)nc2ccccc2c1=O | 3
O=C(c1cncs1)N1CC(=O)N(C2CCCCC2)CC(OCc2ccccc2)C1 (stereo not drawn) | -6
CN(Cc1cnc(-c2ccccn2)nc1)Cc1cccc2ncccc12 | 0
COc1ccc(CC(=O)N2CCC(C)(C(=O)NCc3ccc(F)cc3F)CC2)cc1 | -36
CCN1CCC(CN(CC)C(=O)c2ccc(S(N)(=O)=O)cc2)C1 (stereo not drawn) | 25
CN(C[C@H]1[C@@H](c2ccc(C3=CCCC3)cc2)[C@@H](CO)N1CCC(F)(F)F)S(C)(=O)=O | -1
O=C(c1ccc2ncccc2c1)N1CCOCC1 | 21

Brought forward from above: two entries, then new ones.
SMILES | Tg IFNy HTS
CN(C[C@H]1[C@@H](c2ccc(C3=CCCC3)cc2)[C@@H](CO)N1CCC(F)(F)F)S(C)(=O)=O | -1
O=C(c1ccc2ncccc2c1)N1CCOCC1 | 21
Cc1ccn2c(C(=O)N3C[C@@H]4C5CCC(CC5)[C@@H]4C3)c(C)nc2c1 | 3
CSc1nc(N)nc(CSc2ccc(Cl)cc2)n1 | ?
CC(=O)N1CCCn2nc(C(=O)NCc3nc4ccccc4[nH]3)cc2C1 | 40
COc1ccc(-n2c(=O)c(C(=O)NC(C)c3ccc(F)cc3)c(O)c3cccnc32)cc1 (stereo not drawn) | 122
Cc1ccc(-c2coc(-c3ccc(NC(=O)Nc4ccccc4F)cc3)n2)c(C)c1 | -27
CC1CCN(c2ncc(-c3cncn3CCNC3CCS(=O)(=O)C3)cn2)CC1 (stereo not drawn) | -8
CC(=O)N1CCC2(CC1)OC(=O)C(C)=C2C(=O)NCCc1ccccc1 | 2
CN(C)S(=O)(=O)N1CCO[C@@H]2CN(c3ncc(F)cn3)C[C@@H]21 | -5
Cc1ccc(CNC(=O)Cn2c(=O)cc(C(=O)N3CCc4ccccc4C3)c3ccccc32)cc1 | 7
N#Cc1cc2c(OCC(O)CN3CCN(C(c4ccccc4)c4ccccc4)CC3)cccc2[nH]1 (stereo not drawn) | -56
Cc1ccc(Sc2ccc(C3NCCc4[nH]cnc43)o2)cc1 (stereo not drawn) | 57
COc1ccc(CN2C[C@@H]3CN(Cc4nccn4C)C[C@H]3C2=O)cc1 | -1
CCN(Cc1cnc(-c2ccco2)nc1)CC1CCOCC1 | 4
COCC(NC(=O)c1cccc(CC2CCNCC2)c1)c1ccnn1C (stereo not drawn) | 4
CC(=O)c1cn(C(C)C(=O)N2CCc3c(nc[nH]c3=O)C2)c2ccccc12 (stereo not drawn) | -7
NS(=O)(=O)c1c(Cl)sc(Cl)c1Br | 36
COc1ccc(-c2nnc(SCC(N)=O)n2-c2ccc(OC)cc2)cc1 | -5
Cc1oc(-c2ccccc2)nc1Cn1nnc(-c2nc(-c3cccc(Br)c3)no2)c1C | -6
CCN(CC)C(=O)CN1CCCCC1c1nc2ccc(F)cc2[nH]1 (stereo not drawn) | -4
CCN(c1ccccc1)c1cc(NC)[n+](C)c(C)n1 | 31
COc1cc2c(cc1-c1nccn1Cc1ccc(S(N)(=O)=O)cc1)CCC2 | -6
COCCN(C)C[C@@H]1CCC[C@@H]2CN(Cc3ccn[nH]3)C[C@H]21 | 130
COc1cc(Br)c(-c2cc3ccccc3oc2=O)cc1OC | -86*
O=C(CCC1Nc2c3ccccc3nc(=S)n2C1=O)N1CCC(Cc2ccccc2)CC1 (stereo not drawn) | 12
COCC(=O)N1CCC2OCCCC2(COCc2cccc(C)n2)C1 (stereo not drawn) | 8

Single values from above.
COc1ccc(-n2c(=O)c(C(=O)NC(C)c3ccc(F)cc3)c(O)c3cccnc32)cc1 (stereo not drawn) | Tg IFNy HTS = 122
Cc1ccc(CNC(=O)Cn2c(=O)cc(C(=O)N3CCc4ccccc4C3)c3ccccc32)cc1 | Tg IFNy HTS = 7

Pulled one by one from the list above (2):
SMILES | Tg IFNy HTS
NS(=O)(=O)c1c(Cl)sc(Cl)c1Br | 36
Cc1oc(-c2ccccc2)nc1Cn1nnc(-c2nc(-c3cccc(Br)c3)no2)c1C | -6

New compounds follow:
SMILES | Tg IFNy HTS
COc1ccc(-n2c(Cc3cccnc3)n[nH]c2=O)c(C)c1 | 1
O=C(Nc1cccc(Cl)c1)N1[C@@H]2CNC[C@H]1C2c1ccc(/C=C/c2ccccc2)cc1 (stereo partly drawn) | -6&38
CSc1ccccc1NC(=O)CCC(=O)N1C[C@H](OC(C)C)[C@@H](O)C1 | -3
Cc1ccccc1CNC(=O)N1CC[C@H]2CN(CC(C)C)S(=O)(=O)[C@@H]2CC1 | -28
CCOC(=O)C1CCN(S(=O)(=O)c2cc3c4c(c2)CCC(=O)N4CCC3)CC1 | 33
O=C(Cc1cccc(F)c1)N1CCC2(CC1)Nc1cc(F)ccc1-n1cccc12 | 61
Cn1nc(C2CCN(C(=O)c3ccncn3)CC2)n(Cc2ccccc2)c1=O | -42
O=C(Cc1cn2ccsc2n1)NCCc1nc2c(s1)CCCC2 | -57
Cc1ccc(C(=O)Nc2ccc(C3NC(=O)c4ccc(C)nc4N3C)cc2)cn1 (stereo not drawn) | -2
Cc1ccc(OC2(C(=O)NC(C)c3csc(C)n3)CCNCC2)cc1 (stereo not drawn) | -5
CC(C)Oc1ccc(CNC2CCOC(C)(C)C2)cc1 (stereo not drawn) | -5
CC(c1ccc(-c2cccc(F)c2C(N)=O)cc1)N1CCCCC1 (stereo not drawn) | -1
C/C=C/c1ccc([C@H]2[C@@H](CNC(C)=O)N(C(=O)Cc3ccncc3)[C@H]2CO)cc1 | -3
CCCn1ncc(CN(Cc2ccc(F)cc2)CC2CCCO2)c1C (stereo not drawn) | 8
Nc1ncnc2c1ncn2C1CCCO1 (stereo not drawn) | 16&12
CC(C)(C)c1ccc(C(=O)/C=c2/[nH]c(=O)/c(=C/c3ccccc3)s2)cc1 | -29
O=C(Cn1c(=O)cc(C(=O)N2CCCCC2)c2ccccc21)Nc1cccc(Br)c1 | -23
CCN1c2cc(C)ccc2-n2cccc2C12CCN(C(=O)NC1CCCCC1)CC2 | -60
